BasE inh = BasE siderophore biosynthesis inhibition | purified BasE, fluorescence polarization binding displacement | inhibition, % (concentration not given with the values) | hit rate 0.1% among 84,000;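 active = both replicates above 25% with normal brightness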;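 note: 0% = negative plate control signal and 100% = positive plate control signal; stock transfer was 100 nL into about 30 µL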
LANA-nucl inh = LANA-nucleosome interaction inhibition; AID 720717; FITC-LANA1-23 / chicken nucleosome fluorescence polarization; active compounds read low; z-score (no concentration beside the values); hit rate 0.3% among 51,000;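 active = both repeat wells score below -2 in polarization z-score versus plate sample wells, excluding overly bright wells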;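 note: 100 nL library stock added to about 30 µL; numbers are from one replicate; some results filed as inactive read as strong as hits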
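Assay system: FITC-LANA peptide and chicken nucleosomes; input: 240 nM purified chicken nucleosomes (480 nM peptide binding sites), final; also added: 50 nM FITC-LANA1-23 probe; medium: TEN-BT buffer, pH 7.5; doses: pin-transferred compound, 100 nL; times: 10–45 min, room temperature; technique: fluorescence polarization; replication: duplicates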
* hit, by the source's call; nt = no result given; & = joins results of further samples. The list is partial, so the mix of outcomes need not match the whole.

Sequence of screens – BasE inh	LANA-nucl inh
COc1ccc(S(=O)(=O)N2c3cc(F)ccc3CCC2C)cc1OC (configuration not stated)
  -4.0	2.7
O=c1cc(CSc2nnc(COc3ccccc3Cl)n2C2CC2)nc2sccn12
  1.9	nt
CCOc1ccc(C(=O)CSc2nnc(-c3ccco3)c(-c3ccco3)n2)cc1NC(=O)CC
  -0.8	0.77
COC1(c2ccc(Cl)cc2)OC(=O)c2ccccc21 (configuration not stated)
  -1.1	nt
O=C(CC(c1ccc(F)cc1)N1Cc2ccccc2C1=O)N1CCCCC1 (configuration not stated)
  0.8	-0.85
COc1ccc(C(=O)NCC#N)cc1
  0.8	nt
COc1ccc2c(c1)c(C(=O)CN(C)C)c(C)n2C
  0.9	-0.86
O=C(c1ccn(C(=O)c2ccccc2)n1)N1CCOCC1
  0.1	-1.3
CCOC(=O)N1CCC(=NNC(=O)Cn2nnc3ccccc32)CC1
  1.0	nt
CC1(C)CC(=O)C2=C(C1)NC(=O)CC2C(=O)Nc1ccc(F)c(Cl)c1 (configuration not stated)
  0.6	-0.4
O=C(CSc1ncnc2c1cnn2-c1ccc(F)cc1)Nc1ccc2c(c1)OCO2
  -0.7	0.5
S=c1[nH]nc(C2COc3ccccc3O2)n1-c1ccccc1 (configuration not stated)
  2.7	-1.9
C/C=C/C(=O)N1c2ccccc2C(C)=CC1(C)C
  0.1	0.15
Nc1ccc(C(=O)OCCCc2nc3cc4ccccc4cc3[nH]2)cc1
  -1.8	nt
C=CCNc1nc(N2CCCC2)nc2ccccc12
  -4.5	0.21
Nc1ncnc2nc(SCC(=O)O)[nH]c12
  -0.6	-0.4
Cc1cc2nc3c(=O)[nH]c(=O)[nH]c3nc2cc1N=Cc1c(O)n(Cc2ccccc2)c(=O)[nH]c1=O
  8.8	-1.6
CC(Oc1ccccc1)c1ccnn1C(=O)Nc1ccccc1 (configuration not stated)
  nt	0.17
Cc1cccc(N2C(=O)CC(Sc3ncn[nH]3)C2=O)c1 (configuration not stated)
  1.7	0.44
CCCCC(CC)C(=O)Nc1c2c(nc3c1CCC3)CCCC2 (configuration not stated)
  2.7	nt
COC1C2C3CC4C5C3C1C5C(O)(c1ccccc1)C42 (configuration not stated)
  0.6	-0.019
COc1ccccc1S(=O)(=O)N(C)S(=O)(=O)c1cc(Cl)ccc1Cl
  4.8	nt
CCc1c(O)nc(SC(C)C(=O)Nc2cccc(Cl)c2)[nH]c1=O (configuration not stated)
  0.5	0.53
Cc1ccc(S(=O)(=O)Nc2cccc(C)c2)cc1
  1.3	-0.28
COc1cc(CCC(=O)NCc2ccco2)on1
  0.9	-0.56
CC(=O)NC(NC(C)=O)C(=O)c1ccccc1
  0.6	-0.58
NC(N)=N/N=C\c1c(Cl)cccc1Cl
  1.3	-0.24&0.59
O=C(Cn1ncc2c([nH]c3ccccc32)c1=O)N1CCc2ccccc21
  -1.8	-0.16
CCOCCOc1cccc2oc(C(=O)OCC)cc(=O)c12
  2.5	-0.16
CC(CNC(=O)c1nnc(Cc2ccc(F)cc2Cl)o1)c1ccccc1 (configuration not stated)
  0.2	-0.44
O=C1COc2ccc(C(=O)COC(=O)c3ccc4c(c3)C(=O)N(Cc3ccco3)C4=O)cc2N1
  1.7	nt
CN1C(=O)c2cccc(NC(=O)CSc3ccc(F)cc3)c2C1=O
  0.3	-0.039
COc1ccc(C(=O)NCc2cc3ccccc3n2C)cc1
  1.9	-1.1
O=C(c1cncc(Br)c1)N1CCSc2ccccc21
  1.5	nt
CCOC(=O)N1CCC(NC(=O)CN2N=C(c3ccc(Cl)cc3)CCC2=O)CC1
  8.1	-1.7
O=C(COC(=O)c1ccc(NS(=O)(=O)c2cccs2)cc1)Nc1ncc(Br)s1
  0.1	nt
CCC(C)(C)N=C(NC#N)Nc1cccnc1
  nt	0.65
Cc1cc(C)cc(NC(=S)N2CCC(N(C)CC3CCCO3)CC2)c1 (configuration not stated)
  -1.4	-0.25
Cc1ccc(Nc2nc(CSc3nnc(-c4ccccc4)o3)cs2)cc1
  5.0	nt
CCS(=O)(=O)c1ccc(O)c(N=Cc2ccncc2)c1
  1.3	nt
O=C(O)CC(C(=O)Nc1ccc(Cl)cc1)N1CCCCCC1 (configuration not stated)
  0.2	0.74
Cc1ccccc1NC(=O)Nc1ccccc1C
  0.9	nt
O=C(CCSc1ccc(Cl)cc1)N1CCN(c2ccc(O)cc2)CC1
  -0.7	nt
CCN1CCC(N(Cc2ccco2)C(=O)Nc2ccc(OC)cc2)CC1
  0.2	0.55
CC(=O)Nc1nc(-c2cccnc2)cs1
  1.4	0.51
CC(SC12CC3CC(CC(C3)C1)C2)C(=O)O (configuration not stated)
  -0.3	-0.51
CCCN1/C(=C(\C#N)C2=NS(=O)(=O)c3ccccc32)N(C)c2ccccc21
  1.8	nt
O=C(NCCO)c1cc[n+](CC(=O)c2cccs2)cc1
  1.2	nt
CCOC(=O)c1c(C)c(C(=O)Nc2cccc(C)c2)c(C)n1C
  -2.0	-1
C=CCN1C(=O)C2Cc3c([nH]c4ccccc34)C(c3ccc(O)cc3)N2C1=S (configuration not stated)
  -18	3.4
CCn1c(=O)c(C(=O)CC#N)c(N)n(Cc2ccccc2)c1=O
  0.5	nt
CCCCn1c(N)c(N(C)C(=O)CSc2nnc(C)n2-c2ccccc2OC)c(=O)[nH]c1=O
  1.1	nt
CCC(=O)NC1(C(F)(F)F)C(=O)NC(C)=C1C(=O)OC (configuration not stated)
  1.9	0.39
CCOC(=O)C1CCN(C(=O)c2cccc(Cl)c2)CC1
  0.2	-0.92
Cc1nn(-c2ccccc2)c(C)c1Sc1n[nH]c(=O)[nH]c1=O
  3.5	nt
CC(NC(=O)C(C)N1CCN(S(=O)(=O)c2ccc(F)cc2)CC1)c1ccccc1 (configuration not stated)
  -0.2	nt
O=C(Cc1ccccc1)NCc1ccc(-n2cccc2)cc1
  1.0	-0.38
O=C1C2(CCC13COC(c1ccco1)OC3)COC(c1ccco1)OC2 (configuration not stated)
  0.2	0.32
O=C(CCc1nc2ccccc2c(=O)[nH]1)NC1CCCCC1
  1.4	nt
Nc1nc2c(c(Nc3ccccc3)n1)C(=O)CCC2
  -1.3	-1.3

Part of the list above, field by field.
canonical_smiles: C/C=C/C(=O)N1c2ccccc2C(C)=CC1(C)C
  BasE inh: 0.1 | LANA-nucl inh: 0.15

canonical_smiles: CC(=O)Nc1nc(-c2cccnc2)cs1
  BasE inh: 1.4 | LANA-nucl inh: 0.51

New compounds follow
Sequence of screens – BasE inh	LANA-nucl inh
COc1ccc(OCC(=O)N2CCN(C(=O)COc3ccccc3)CC2)cc1
  3.2	-0.13
CSc1scc2c1-c1nn(C(=O)c3ccc(Cl)cc3)cc1CC2
  6.1	nt
CN1c2ccccc2Sc2ccccc21
  -1.6	-0.18
Cc1sc2ncnc(Oc3cccnc3)c2c1C
  -0.3	-0.028
CN(Cc1ccc(OC(F)F)cc1)C(=O)Cn1cnc2ccccc2c1=O
  -0.9	nt
CCOc1ccc(-c2cn(C(=O)Nc3ccccc3)nc2N)cc1
  10	-0.48
O=C1CCCc2oc3c(c21)CCCC3
  1.0	-0.91
CC(Sc1nnc(-c2ccc(Cl)cc2)o1)C(=O)c1ccccc1 (configuration not stated)
  1.3	nt
Cc1nn(-c2nc3ccccc3[nH]2)c(N)c1N=Nc1ccc(S(N)(=O)=O)cc1
  1.6	nt
CC1(C)COC(c2ccc(C(C)(C)C)cc2)=N1
  -2.5	nt
Clc1nc(Cl)nc(NCCC2=CCCCC2)n1
  -4.6	1.4
CCNc1nc(NC(C)(C)C)nc(N2CCCCC2)n1
  2.3	-0.24
N#CC1(C#N)C(C#N)(C#N)C12CCCCC2
  2.2	-0.28
O=C(Nc1ccc(-c2ccccc2)cc1)c1ccccn1
  2.6	-0.17
COc1ccc(CNC(=O)Cn2cc3c(n2)CCCC3)cc1
  -1.1	-0.11
COc1ccc(S(N)(=O)=O)cc1C(=O)OC1CCCCC1=O (configuration not stated)
  3.4	nt
Nc1c(N2CCOCC2)c2ccccc2oc1=O
  2.6	nt
CS(=O)(=O)N/N=C/c1ccccc1
  0.2	-1.3
CC1(C)O[C@@H]2CC3C4C[C@H](F)C5=CC(=O)CC[C@]5(C)C4[C@@H](O)C[C@]3(C)[C@]2(C(=O)CO)O1 (some centres not stated)
  -0.2	-0.48&-0.6
O=C(Nc1nc2cc3c(cc2s1)OCCO3)c1ccncc1
  0.5	nt
Cc1oc(-c2ccccc2)cc1C(=O)NC1CCN(Cc2ccccc2)CC1
  -3.2	2.5
O=C(N[C@H](CO)[C@@H](O)c1ccc([N+](=O)[O-])cc1)C(Cl)Cl
  -0.8	0.98
COc1ccc(C(=O)OC2=C(c3ccccc3)C(=O)c3ccccc3C2=O)cc1
  2.0	nt
Cc1nc2c(c(C)c1CCC(=O)NCCc1ccco1)c(=O)n(C)c(=O)n2C
  2.3	-1.2
COc1cc([C@@H]2c3cc4c(cc3[C@H](O)[C@H]3COC(=O)[C@H]23)OCO4)cc(OC)c1OC
  -1.4	-0.22&-0.019
O=C1CCC(C(=O)OCc2cc(=O)n3cc(Br)ccc3n2)=NN1
  -0.5	nt
C=CCN(CC=C)C(=O)c1ccc(OC)c(Br)c1
  -0.4	0.073
Cn1c(SCCO)nc2c(c1=O)C1(CCCCC1)Cc1ccccc1-2
  -0.2	0.13
CCSc1ncc(CO)n1C
  nt	0.65
C/C(=N/Nc1cccc2cccnc12)C(=O)O
  1.5	-0.028

Part of the list above, bar-delimited.
mol | BasE inh | LANA-nucl inh
CCNc1nc(NC(C)(C)C)nc(N2CCCCC2)n1 | 2.3 | -0.24
COc1ccc(S(N)(=O)=O)cc1C(=O)OC1CCCCC1=O (configuration not stated) | 3.4 | nt

(cont.)
Sequence of screens – BasE inh	LANA-nucl inh
CCSc1cc(C)[nH]c(=O)n1
  1.2	0.17
CCOC(=O)c1[nH]c2ccc(OC)cc2c1NC(=S)N1CCCC1
  0.8	-0.89
CCCc1[nH]n(-c2ccccc2)c(=O)c1C(C)=NCc1ccc(S(N)(=O)=O)cc1
  -0.7	-0.18
CC(NC(=O)OC(C)(C)C)c1nnc(SCC(=O)N(C)C)o1 (configuration not stated)
  -0.8	0.64
O=C(NC1CCCCC1)N1CCN(c2ccccc2F)CC1
  1.6	0.043
Cn1/c(=N/NC(=O)c2ccc(S(=O)(=O)N3CCCCC3)cc2)sc2ccccc21
  1.3	nt
CS/C(N)=N/S(=O)(=O)c1ccc(C)cc1
  2.5	0.029
CCOC(=O)c1cc(S(=O)(=O)N2CCN(c3ccccc3F)CC2)cn1C
  1.3	-1.5
O=C(OCc1cn(-c2ccccc2)nc1-c1ccccc1)c1ccco1
  -1.0	nt
Cc1cc(C(=O)Nc2ccccc2)c(C)o1
  3.8	nt
CCCCCn1nnc2c(=O)oc3ccccc3c21
  0.0	-0.43
CN(C)S(=O)(=O)c1ccc(C(=O)NC2=N/C(=C(/C#N)C(=O)N3CCCCC3)c3ccccc32)cc1
  0.1	nt
O=C(O)c1ccc(C23CC4CC(CC(C4)C2)C3)o1
  -2.0	-0.38
CCC(C)CCCNc1nnc(SCC(=O)c2nnc(-c3ccccc3)o2)s1 (configuration not stated)
  -2.6	nt
COC(=O)c1sc(N)c(C(=O)OC)c1COC(=O)CCN=C1NS(=O)(=O)c2ccccc21
  0.9	nt
COc1ccc(C2C(C(=O)N3CC(C)CC(C)C3)CCC(=O)N2c2cc(OC)c(OC)c(OC)c2)cc1 (configuration not stated)
  2.4	0.55
CN(C(=O)COC(=O)c1nccnc1N)c1ccccc1
  3.9	nt
CCCCc1c(C)[nH]c2ccccc2c1=O
  -2.2	0.54
CS(=O)(=O)Nc1cccc(C(=O)OCC(=O)c2cccs2)c1
  0.0	nt
CNC(=O)NC(=O)COc1ccc(Oc2ccccc2)cc1
  0.0	nt
COc1ccc(NC(=O)C2CC(=O)N/C(=N/N=C(\C)c3ccccc3)S2)cc1 (configuration not stated)
  -2.4	0.44
O=C1C2C(c3ccccc3)OC3(C(=O)c4ccccc4C3=O)C2C(=O)N1C1CCCCC1 (configuration not stated)
  1.3	0.089
COC(=O)C1Cc2ccccc2CN1S(=O)(=O)c1ccc(F)cc1 (configuration not stated)
  0.8	-0.65
Cn1c(-c2sc(=S)n(-c3ccccc3)c2N)nc2ccccc21
  -4.0	0.25
CCCc1c(C(=O)N(Cc2ccccc2)Cc2cccs2)cnn1-c1ccccc1
  2.6	nt
CCC(=O)N/C(N)=N/c1nc2ccccc2o1
  0.9	-0.13
Cc1ccc(C(CC(=O)N2CCC(C)CC2)N2Cc3ccccc3C2=O)cc1 (configuration not stated)
  0.6	-0.84
Cc1ccc2nc(SCC(=O)NC(=O)C(C)(C)C)[nH]c2c1
  -2.0	nt
COc1ccc2c(c1)N(C)/C(=C1/SC(=S)N(C)C1=O)S2
  0.6	-0.69
O=C(Nc1ccccc1)C1CC(=O)N(c2ccccc2)C1 (configuration not stated)
  -1.2	-1.2
CCOc1ccccc1C1C(C#N)=C(N)SC(N)=C1C#N
  -16	nt
CSc1nc2ccccc2n1CN1CCN(S(=O)(=O)c2ccccc2C#N)CC1
  28	nt

Compound profiles, from the list above.
`COC(=O)c1sc(N)c(C(=O)OC)c1COC(=O)CCN=C1NS(=O)(=O)c2ccccc21` is listed as BasE inh: 0.9; LANA-nucl inh: nt
`Cc1ccc(C(CC(=O)N2CCC(C)CC2)N2Cc3ccccc3C2=O)cc1` (configuration not stated) is listed as BasE inh: 0.6; LANA-nucl inh: -0.84

Screening results from PubChem BioAssay.
